Screening data from PubChem.
Vaccinia Venus: vaccinia inhibition (Venus reporter). 330,000 tested, 0.46% active. AID 720580. Potency, µM (doses to about 36.5 µM), inactives show at the top dose activity change, negative = inhibition, most hits filed as inhibitors. Vaccinia virus Venus reporter expression, fluorescence; active means well fitted inhibition curve with a large enough effect; inconclusive means small, poorly fitted or top-dose-only effect; inactive means no such curve, though single readings can be large or run the other way; tested in A549 cells; further: nearly all actives have a fitted effect of over 30% in size; inactives centre near -10
Vaccinia mCherry: vaccinia inhibition (mCherry reporter) | Vaccinia virus mCherry reporter infection, fluorescence; about a quarter of the inactives have no number | Potency, µM (titrated, usually from 36.5 µM), for the others: top-dose activity change, negative = inhibition, most hits filed as inhibitors | 310,000 tested, 0.63% active | AID 720579; active = well fitted inhibition curve with a large enough effect; inconclusive = small, poorly fitted or top-dose-only effect; inactive = no such curve, though single readings can be large or run the other way; tested in A549 cells; further: nearly all actives have a fitted effect of over 35% in size; inactives centre near -10
Numbers without * were called inactive; i = inactive; u = inconclusive; x = no result given; & = joins results of further samples; [ ] = another dose, or the depositor's remark. On the % scale 0 is the no-effect control and ±100 the full control effect; potency means the concentration at half of the fitted maximal effect. Not a hit list; 0.87% or so of the library scored in one or more.

SMILES	Vaccinia Venus	Vaccinia mCherry
CC1CCCC(NC(=O)CNC(=S)N(Cc2ccccc2)Cc2cccs2)C1C (configuration not stated)	-20%	-24%
COC(=O)c1c(NC(=O)C2CCCCC2C(=O)O)sc2c1CCCCC2 (configuration not stated)	-16%	-21%
CCC(C)CN1C(=O)CN(S(C)(=O)=O)CC1(C)C(=O)NCc1ccccc1 (configuration not stated)	-3%	u
O=C(O)c1ccc(Nc2nc(-c3ccc([N+](=O)[O-])cc3)nc3ccccc23)cc1	-17%	-6%
COc1cn(-c2ccccc2)nc1C(=O)Nc1ccc(C)cc1	-24%	-29%
Cc1cccc(C)c1NC(=O)CSc1nnc(-c2ccncc2)n1Cc1ccco1	-13%	-16%
Cc1cc(NC(=O)c2cc(CC(C)C)on2)no1	-11%	0%
O=C(CO/N=C/c1ccccc1OC(F)F)NCc1ccco1	-8%	i
CCOc1ccccc1CNC(=O)CCCn1c(=O)c2cccn2c2ccc(F)cc21	-10%	-16%
COC(Cn1c(-c2cccc(S(=O)(=O)N(C)C)c2)n[nH]c1=S)OC	-3%	-12%
CCOc1ccc(CCNC(=O)CCc2c(C)nc3c(-c4ccccc4)c(C)nn3c2C)cc1OCC	-18%	-8%
O=C(O)CNS(=O)(=O)c1cc(Cl)c(Cl)cc1Cl	-9%	x
O=C(Cc1ccc(Cl)cc1)Nc1nnc2n1CCS2	-8%	-7%
C/C(N)=C(/C#N)C(=O)COC(=O)C1Cc2ccccc2CN1S(C)(=O)=O (configuration not stated)	-14%	i
CSCCNC(=O)C1(C)CCN1C(=O)C/C=C/c1ccccc1 (configuration not stated)	8%	14%
CS(=O)(=O)c1ccc2nc(NC(=O)C3=NN(c4ccccc4)C(=O)CC3)sc2c1	-1%[7.34 µM]	i[7.34 µM]
Cc1ccc2c(CNCc3ccc(C)o3)c(C(=O)O)n(Cc3ccccc3C)c2c1	-10%	-3%
COCCn1c(SCc2cc(C(C)=O)ccc2OC)nc2cc(Cl)ccc2c1=O	-7%	-12%
COc1ccc(NC(=O)Nc2cccc3c2O[C@H](CN(C)C(=O)NC(C)C)[C@@H](C)CN([C@H](C)CO)C3=O)cc1	-6%	i
CC(=O)N1CCc2cc(S(=O)(=O)N3CCc4ccccc4C3)ccc21	-2%	-6%
Cc1cc(O)c(C(=O)/C=C/c2ccccc2)c(=O)o1	30%	1%
COc1ccc(OC)c(-n2c(-c3ccn[nH]3)n[nH]c2=S)c1	-3%	i
CCCS(=O)(=O)N1CCC(C(=O)N2CCN(Cc3ccccc3)CC2)CC1	-9%	i
COc1ccccc1Cc1c(-c2ccc(OC)c(OC)c2)nc2ccc(Cl)cn12	10%	1%
COc1ccc(-n2cnnc2SCC(=O)Nc2cccc(S(=O)(=O)N3CCCCC3)c2)cc1	-14%	-4%
CCOC(=O)/C(=C\Nc1ccccc1C(F)(F)F)Sc1ncc(C(F)(F)F)cc1Cl	-2%	x
COc1ccc2c(C)cc(SC3CCOC3=O)nc2c1 (configuration not stated)	-21%	i
CCc1cccc(CC)c1NC(=O)Cn1nnc2sc(-c3ccccc3)cc2c1=O	-3%	-1%
CCCC/C=C1/CCC(CN(C)C)C1=O (configuration not stated)	-2%	i
Clc1ccccc1OCc1nn2c(-c3ccncc3)nnc2s1	-14%	-24%
Cc1cccc2c1cnn2C(=O)CCC(=O)NC1CCCCC1	-12%	-3%
C[C@@H]1CN([C@H](C)CO)C(=O)CCCn2nncc2CO[C@H]1CN(C)C(=O)c1ccc(N2CCN(C)CC2)cc1	4%	-8%
CC(C)(C)c1ccc(C(=O)Oc2ccc3c(c2)OCC3=O)cc1	-5%	-10%
CCN1CCN(CCCNC(=O)c2ccc3c(c2)NC(=O)c2ccccc2S3)CC1	-4%	-9%
COc1ccc(OC)c(NC(=O)c2ccccc2NC(=O)c2ccco2)c1	-8%	-15%
Cc1cccc(C)c1NC(=O)CCS(=O)(=O)c1cccc2nonc12	6%&-7%	-10%&-7%
COc1ccc(Cc2nc3ccc(C(=O)N(C)C(C)c4nccs4)cc3o2)cc1 (configuration not stated)	-12%	-19%
CCc1ccc(CNC(=O)c2cc(=O)[nH]c3ccc(S(=O)(=O)N4CCCCC4)cc23)cc1	-1%	-10%
CCOc1ccc(C(=O)OCCN(C)C)cc1	2%	x
CN(C)c1ccc(C(CNC(=O)Cc2ccc(Cl)cc2)N2CCOCC2)cc1 (configuration not stated)	-9%	-3%

Single records, as listed above:
Results for `Cc1cccc2c1cnn2C(=O)CCC(=O)NC1CCCCC1` → Vaccinia Venus = -12%; Vaccinia mCherry = -3%
Results for `COc1ccc(OC)c(-n2c(-c3ccn[nH]3)n[nH]c2=S)c1` → Vaccinia Venus = -3%; Vaccinia mCherry = i

The listing continues:
SMILES	Vaccinia Venus	Vaccinia mCherry
Clc1ccc(OCc2cn3ccccc3n2)c2ncccc12	-5%	-4%
COc1ccccc1Cc1c(-c2ccc(C#N)cc2)nc2c(C)cc(Br)cn12	-14%	i
Cc1nc2ccccc2n1CC(O)Cn1c(C(F)(F)F)nc2ccccc21 (configuration not stated)	-3%	x
CCn1c(SCC(=O)Nc2cc(C(C)(C)C)nn2-c2ccccc2)nnc1-c1cccs1	-16%	i
C=CCSc1nnc(C)c(/C=C/Nc2ccc(Cl)cc2)n1	-10%	-28%
CCCCCCSc1cccc(-c2nc3ccc(Cl)cn3c2NCCCC)c1	-10%&14%	-6%&6%
O=C(OCC(=O)N1CCOCC1)c1ccc(N2CCOCC2)c([N+](=O)[O-])c1	5%	11%
Cc1ccccc1-c1nc(SCC(=O)NCc2ccco2)c2c(=O)n(C)c(=O)n(C)c2n1	-6%	-13%
CCCC(CCC(=O)Nc1ccc(C(=O)OC)cc1)C(=O)O (configuration not stated)	-11%	x
O=C(NN=C1CCCCCC1)c1cn(-c2ccccc2)nc1-c1ccccc1	-24%	u
O=C(Nc1cccc2ccccc12)c1csc([C@@H]2O[C@H](CO)[C@@H](O)[C@H]2O)n1	2%	i
COc1ccc(C[C@H]2CN3C(=NC[C@H]3Cc3ccccc3)N2CCNC(=O)CCC2CCCCC2)cc1	u	11µM*
Cc1ccc(NC(=O)CCC(=O)N2Cc3ccccc3Oc3ncccc32)c(C)c1	-5%	-9%
CCNc1nc(NC(C)C)nc(Oc2ccc(/C=N/O)cc2)n1	-11%	-3%
CCOC(=O)[C@H]1[C@H]2COc3ccc(OC)cc3[C@@H]2N2C(=O)CN(Cc3ccccc3)C(=O)[C@@]12C	3%	i
C/C(=N\NC(=O)C1(C)CC1(Br)Br)c1ccc(NC(=O)C2CCC2)cc1 (configuration not stated)	u	i
C/C(=N\NC(=O)c1nn(C)cc1Br)c1ccc(NC(=O)c2ccncc2)cc1	9%	-2%
CNC(=O)C[C@H]1C(=O)N(c2ccc(OC)cc2)C[C@@H]1CSC	-3%	i
COc1ccccc1NC(=O)c1ccc(NC(=O)COC(=O)C2(C)CC2(Cl)Cl)cc1 (configuration not stated)	-17%	-26%
O=C(/C=C/c1ccc2c(c1)OCO2)Nc1nc2ccccc2s1	-21%	1%
O=C1C2C3C=CC(C3)C2C(=O)N1c1ccc2c(c1)OCO2 (configuration not stated)	-3%	i
CC1=C(C(N)=O)C(c2ccc(Cl)c(Cl)c2)n2ncnc2N1 (configuration not stated)	-16%	i
CCN1C(=O)N[C@@H](c2ccccc2)[C@@H](C(=O)OC)[C@H]1C	-5%	i
C[C@@H](C(=O)Nc1ccc2ccccc2c1)[C@H]1C[C@]1(C)[C@H](NS(=O)(=O)c1ccc(-c2ccccc2)cc1)c1ccccc1	-5%	i
O=C1CC[C@@H](C(=O)O)N1	-13%	i
Cc1cccc(N(C)C(=O)c2cc(S(=O)(=O)N3CCCCC3)c[nH]2)c1	-6%&-1%	-7%
Cc1ccc(NC(=O)CSCC(=O)Nc2ccc(S(=O)(=O)N3CCCC3)cc2)cc1	-7%	-11%
COc1ccccc1CN1CCN(C(=O)COc2cccc(C)c2)CC1	-11%	-9%[7.34 µM]
CCCCOc1nc(N2CCOCC2)nc(C)c1[N+](=O)[O-]	-7%	-15%
CC(Oc1cc2oc(=O)cc(-c3ccccc3)c2cc1Cl)C(=O)NCC1CCC(C(=O)O)CC1 (configuration not stated)	-1%	-7%
CCOc1ccc(N(CC(=O)Nc2ccc(Cl)cc2)S(C)(=O)=O)cc1	-13%	-8%
O=C(CCCCCn1c(=S)[nH]c2ccc(N3CCOCC3)cc2c1=O)NCCc1ccccc1	-10%	i
COc1ccccc1CNCCS(=O)(=O)NCc1ccccc1OC	-13%	i
Cc1ncc(CSc2nnnn2-c2ccccc2)c(N)n1	-6%	i
O=c1c2sccc2n(Cc2cc(=O)n3ccccc3n2)c(=O)n1-c1cccc(C(F)(F)F)c1	-11%	-13%
C[C@H](CO)N1C[C@H](C)[C@H](CN(C)C(=O)CCC(F)(F)F)OCc2cnnn2CCCC1=O	-7%	i
COc1ccc(C(=O)N2CCC(O)(c3ccc(F)cc3)CC2)cc1OC	1%	-10%
O=C(O)/C=C/C(=O)NCCC(c1ccccc1)c1ccccc1	-17%	i
COc1cc(-n2ccnc2SC)c(Cl)cc1Cl	-21%	-3%
Cc1cc(NCCCN2CCOCC2)n2nc(C)c(-c3ccccc3)c2n1	-9%	x

Some values from the list.
CC(Oc1cc2oc(=O)cc(-c3ccccc3)c2cc1Cl)C(=O)NCC1CCC(C(=O)O)CC1 (configuration not stated) in Vaccinia mCherry has -7%
O=C(O)/C=C/C(=O)NCCC(c1ccccc1)c1ccccc1 in Vaccinia Venus has -17%
COc1ccccc1CNCCS(=O)(=O)NCc1ccccc1OC in Vaccinia Venus has -13%
CCCCOc1nc(N2CCOCC2)nc(C)c1[N+](=O)[O-] in Vaccinia Venus has -7%
COc1ccc(C(=O)N2CCC(O)(c3ccc(F)cc3)CC2)cc1OC in Vaccinia mCherry has -10%
Cc1ccc(NC(=O)CSCC(=O)Nc2ccc(S(=O)(=O)N3CCCC3)cc2)cc1 in Vaccinia mCherry has -11%
CC1=C(C(N)=O)C(c2ccc(Cl)c(Cl)c2)n2ncnc2N1 (configuration not stated) in Vaccinia Venus has -16%

Further results.
SMILES	Vaccinia Venus	Vaccinia mCherry
CCC(=O)Nc1ccccc1N1CCN(c2ccc(F)cc2)CC1	-20%	-23%
CC(C)(C)OC(=O)N/N=C/c1ccc(N2CCOCC2)s1	-15%	-9%
CCc1ccc(C2CC(=O)c3c([nH]c(C(=O)OC4CCCCCC4)c3C)C2)cc1 (configuration not stated)	-19%	-1%
Cc1cccc(NC(=O)c2nc[nH]c2C(=O)N2CCc3ccccc3C2)c1	-21%	u
CC(OC(=O)c1ccc(-n2cnnn2)cc1)C(=O)N(C)c1ccccc1 (configuration not stated)	-11%	-19%
CCNC(=O)c1cccc(NC(=O)C2CC(=O)N(CCc3ccccc3)C2)c1 (configuration not stated)	-19%	-14%
O=C(c1ccccc1)N1CCCCC(S(=O)(=O)c2ccccc2)C1=O (configuration not stated)	-2%	-8%
CC(=O)C1=C(C)NC(=O)CC1c1ccccc1Cl (configuration not stated)	-11%	i
COc1cccc(-c2n[nH]c3c2C(c2ccccn2)N(C)C3=O)c1 (configuration not stated)	-13%	-16%
C[C@@H]1ON(C)[C@H]2C[C@H]3c4[nH]c5ccc(-c6ccc7c(c6)OCO7)cc5c4CCN3C[C@@H]12	-28%	u
CN1CC[C@]23c4c5ccc(O)c4OC2[C@H](O)C=CC3[C@H]1C5 (some centres not stated)	-23%	-8%
C=CCn1c(SCC(=O)N(C)c2c(N)n(Cc3ccccc3)c(=O)[nH]c2=O)nnc1-c1ccccc1OC	-10%	i
O=C(/C=C/c1ccc(F)cc1)NC(=S)NNC(=O)c1cccnc1	-14%	i
Cc1ccccc1CN1CCN(CC(=O)NCc2ccco2)C1=O	u	x
COc1ccc(CN(Cc2cccn2C)S(=O)(=O)c2ccc(F)cc2)cc1	-12%	-27%
CC1=C(C(=O)Nc2ccc(C(=O)NCCCN3CCCCC3)cc2)SCCO1	6%[7.34 µM]	-2%[7.34 µM]
CCOC(=O)c1ccc(NC(=O)Cn2cc(C(=O)c3ccc(Cl)cc3)c(=O)c3ccc(C)nc32)cc1	-9%	0%
COc1ccc(N2CCN(C(=O)C(=O)c3cccc([N+](=O)[O-])c3)CC2)cc1	-4%	-4%
CN(CC1COc2ccccc2O1)C(=O)CSc1nncs1 (configuration not stated)	-6%	-21%
Clc1ccc(Sc2cc(Cl)c(-c3ccccc3)nn2)cc1	-19%	x
Cc1cn([C@H]2C[C@H](O)[C@@H](/C=C/C(=O)N3CCN(Cc4ccc(F)cc4)CC3)O2)c(=O)[nH]c1=O	-4%	i
O=C(CSc1nc(=O)n(CCCN2CCOCC2)c2c1CCCC2)Nc1cccc([N+](=O)[O-])c1	-16%	-20%
CC(=O)Nc1ccc(SC[C@H](Cc2ccccc2)N2CC[C@@H](C(C)(C)C)CCC2=O)cc1	-29%&-16%	-2%
Cc1ccc(C(=O)CSc2nc(-c3ccccc3)cc(=O)[nH]2)cc1	-4%	i
Cc1cc2nccc(/C=C/c3ccc(N(C)C)cc3)c2cc1C	1%	i
Cc1cccc(C)c1NC(=O)c1cc(S(=O)(=O)N2CCc3ccccc3C2)ccc1F	-4%	-2%
Cc1ccc(NC(=S)N(CCCN2CCOCC2)Cc2ccco2)cc1Cl	-15%	-27%
COc1ccc2nc(N3C(=O)CNC3=S)sc2c1	0%[7.34 µM]	i[7.34 µM]
Cc1onc(-c2c(F)cccc2Cl)c1-c1nnc(-c2ccc(C(F)(F)F)cc2)o1	17%	u
Cc1ccc(NC(=O)N2CCCC2C(=O)Nc2ccc(-n3cnnn3)c(C)c2)cc1 (configuration not stated)	-23%	x
